# Compound activity from PubChem BioAssay.
# TRPML1 agonist – human mucolipin-1 channel agonism; TRPML1-expressing cells, Ca2+ dye fluorescence, FDSS; host cell line not named in the record; reference of the full effect not given here; AID 624414; activation, % (concentration not given with the values); 410,000 tested, 0.12% active; Q9GZU1; in the data active = activation above about 50%; inconclusive = about 30% to 50%; inactive = below about 30%; also: 0% is about no effect; the text of the record puts the active cut at 80%
# Target sequence (Q9GZU1 whole entry, looked up): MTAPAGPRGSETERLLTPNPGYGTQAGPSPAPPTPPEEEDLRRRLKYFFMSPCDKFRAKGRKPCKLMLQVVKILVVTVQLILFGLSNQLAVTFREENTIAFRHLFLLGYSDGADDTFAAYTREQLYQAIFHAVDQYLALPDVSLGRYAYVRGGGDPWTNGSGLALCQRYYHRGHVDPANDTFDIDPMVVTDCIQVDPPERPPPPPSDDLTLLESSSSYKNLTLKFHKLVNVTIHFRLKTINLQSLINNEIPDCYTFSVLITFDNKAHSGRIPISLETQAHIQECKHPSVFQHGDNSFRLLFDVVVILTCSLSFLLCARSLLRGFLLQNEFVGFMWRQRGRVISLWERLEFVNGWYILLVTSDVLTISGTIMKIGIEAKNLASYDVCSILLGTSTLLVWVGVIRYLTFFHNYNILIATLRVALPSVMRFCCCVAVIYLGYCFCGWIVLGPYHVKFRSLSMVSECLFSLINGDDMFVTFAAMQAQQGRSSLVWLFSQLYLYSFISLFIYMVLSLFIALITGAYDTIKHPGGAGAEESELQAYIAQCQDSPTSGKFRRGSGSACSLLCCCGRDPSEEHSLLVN
#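 Tet-induced TRPML1-DL cells, 1,500 per well, cultured overnight, were loaded with a no-wash Ca2+ dye for 45–90 min. Calcium fluorescence was recorded on the FDSS for 110 s after compound addition, before the EC80 agonist (4 uM 54-4) was added.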
# PINK1 expr mod – changes PINK1 expression; 410,000 tested, 0.2% active; PINK1 immunofluorescence, high-content cytometry, 24 h; Potency, µM (series often up to 76.6 µM), for the others: at the top dose activation (PINK1 increase), actives largely listed as activators; active = well fitted activation curve with a large enough effect; inconclusive = small, poorly fitted or top-dose-only effect; inactive = flat fitted curve, though single readings scatter; cell line not stated here;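 also: potency is read from the fitted curve at half-maximal effect; % of control where 0% means no effect; nearly all actives have a fitted effect of over 65% in size; a mitochondrial uncoupler was the plate control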
#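 Stable cell line, 250 cells/well, 12 h attachment; compounds pinned at 5 concentrations, 24 h; CCCP control. Fixed with nuclear dye, primary antibodies 12 h at 10 degrees C, secondary plus cell stain; laser-scanning cytometer read.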
# CtBP-E1A inh – blocks the CtBP interaction with E1A; AlphaScreen GST-E1A/His-CtBP binding, 1536-well; stronger effect = lower value; control for the full effect not named in the record; 340,000 tested, 0.49% active; activity change, % (test concentration not listed); in the data active means activity change below about -65%; inconclusive means about -30% to -65%; inactive means above about -30%; also: % is scaled to controls: 0 for no effect and ±100 for the full control effect; compound concentration not given in the record
#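 Homogeneous bead-based format: GST-tagged E1A captured on glutathione donor beads, His-tagged CtBP on nickel acceptor beads; compounds precede bead addition by 2 h at 37 °C.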
# D2 PAM – positive allosteric modulators of human D2 dopamine receptor; P14416; DiscoveRx D2 beta-arrestin cells, luminescence, 90 min; 100% = 57 uM dopamine signal; potentiation, % (no concentration beside the values); 360,000 tested, 0.23% active; active = potentiation of 50% or more; inconclusive = 30% to 50%; inactive = 30% or less;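 also: compound concentration not given in the record; tested on top of an EC20 dose of dopamine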
# Target sequence (P14416 whole entry, looked up): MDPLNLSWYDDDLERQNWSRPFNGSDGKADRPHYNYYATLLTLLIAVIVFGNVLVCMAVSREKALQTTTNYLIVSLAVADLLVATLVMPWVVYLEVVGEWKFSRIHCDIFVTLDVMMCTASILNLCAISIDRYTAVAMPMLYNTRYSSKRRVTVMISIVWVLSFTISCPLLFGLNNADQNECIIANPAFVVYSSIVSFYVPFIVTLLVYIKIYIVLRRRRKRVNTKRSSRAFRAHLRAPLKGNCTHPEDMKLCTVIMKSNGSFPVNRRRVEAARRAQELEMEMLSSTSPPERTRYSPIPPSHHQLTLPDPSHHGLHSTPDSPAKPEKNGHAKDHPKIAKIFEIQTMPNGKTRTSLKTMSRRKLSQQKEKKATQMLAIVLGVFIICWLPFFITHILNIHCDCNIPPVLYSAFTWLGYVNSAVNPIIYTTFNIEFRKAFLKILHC
#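 PathHunter beta-arrestin assay in DiscoveRx D2 cells. Compounds were added with an EC20 of dopamine (50 nM final) for 90 min at 37 deg C. Luminescence was read 1 h after detection reagent, with 57 uM dopamine as the EC100 control.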
# D2 agonist – human D2 receptor agonism in beta-arrestin assay; AID 624465; DiscoveRx PathHunter D2 beta-arrestin, luminescence, 90 min; 100% = 57 uM dopamine signal; P14416; activation, % (test concentration not listed); 360,000 tested, 0.084% active; in the data active = activation above about 40%; inconclusive = about 15% to 40%; inactive = below about 15%; also: compound concentration not given in the record; the text of the record calls up to 30% inactive
#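 DiscoveRx PathHunter D2 beta-arrestin cells (2,100/well) attached overnight, then compound-stimulated 90 min at 37 C in HBSS/10 mM HEPES/0.1% Tween-20 buffer; beta-galactosidase complementation read by luminescence after 1 h at ambient temperature. Dopamine 57 uM final (EC100) as control.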
# Six1-Eya2 inh – blocks human Six1 binding to Eya2. AlphaScreen GST-Six1/His-Eya2 binding, biochemical; stronger effect = lower value; control for the full effect not named in the record. activity change, % (test concentration not listed). 360,000 tested, 0.56% active; in the data active = activity change below about -65%; inconclusive = about -30% to -65%; inactive = above about -30%; also: % is scaled to controls: 0 for no effect and ±100 for the full control effect; compound concentration not given in the record
#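 AlphaScreen with GST-Six1 and His-Eya2 (5X mix: 250 nM and 500 nM), glutathione donor and nickel acceptor beads; buffer 50 mM Tris pH 8.0, 300 mM NaCl, 1 mM TCEP; 1 h at 37 C in the dark.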
# An asterisk follows results filed as active; ? = inconclusive; / = no result given; & = joins results of further samples; [ ] = dose if it differs, or a comment.
1) Cc1ccc(C(=O)c2ccccc2C(=O)OCC(=O)N2C(C)CCCC2C)cc1 (stereo unspecified)
2) Cc1ccc(NC(=O)c2scc3c2CCCC3)cc1
3) Cc1cccn2c(=O)c3cc(C(=O)NC4CCCCC4)c(=N)n(CCN4CCOCC4)c3nc12
4) CC(=O)Nc1ccc(OC(=O)c2cc([N+](=O)[O-])ccc2Cl)cc1
5) COc1ccc(C(=O)NCCn2cc(SCC(N)=O)c3ccccc32)cc1
6) Cc1c(Br)c(C(F)(F)F)nn1CC(=O)NCC1CCCO1 (stereo unspecified)
7) CN(C(=O)COC(=O)c1ccccc1NCc1ccco1)c1c(N)n(Cc2ccccc2)c(=O)[nH]c1=O
8) CCOC(=O)c1cccc(N/C=C/C(=O)c2ccc(OC)c(OC)c2)c1

compound no.	1	2	3	4	5	6	7	8
TRPML1 agonist	0.2	-0.7	/	0.0	0.3	0.0	1.1	1.8
PINK1 expr mod	1.0%	1.4%	5.2%	-0.1%	-0.9%	/	-3.4%	0.8%
CtBP-E1A inh	1	6	2	6	-3	-1	-4	-10
D2 PAM	-1	-16	-5	?	-6	-8	19	20
D2 agonist	-1.4	-3.3	-2.6	6.7	-0.4	-1.4	-2.2	0.8
Six1-Eya2 inh	4	0	15	6	5	2	-3	-7

9) C#CC(C)(CC)NC(=O)c1cc(OC)c(OC)c(OC)c1 (stereo unspecified)
10) O=c1cc(CSc2nnnn2-c2ccccc2)nc(Nc2ccc(F)cc2)[nH]1
11) CCc1ccccc1NC(=S)N1CCC(C(=O)c2ccc(F)cc2)CC1
12) CCCCCC1CCC(c2ccc(C(N)=O)cc2)CC1 (stereo unspecified)
13) O=C(NCCNC(=O)c1ccc(Br)o1)c1ccc(Br)o1
14) CCCc1cc(C(=O)NC2CCCCC2)no1
15) CCN1C(=O)[C@@H]2[C@@H](c3ccc(-c4ccc(Cl)c(Cl)c4)cc3)N3CCC[C@@]3(C(=O)OC)[C@@H]2C1=O
16) COc1ccc(C(=O)Nc2nc(OCC(F)(F)F)cnc2/C=C\c2ccccc2)c(OC)c1

compound no.	9	10	11	12	13	14	15	16
TRPML1 agonist	0.1	-0.1	-0.7	-0.7	-1.2	0.0	-0.2	1.2
PINK1 expr mod	-1.2%	-1.2%	?	-0.3%	2.0%	1.6%	-0.4%	5.0%
CtBP-E1A inh	-1	6	13	8	3	9	?	-14
D2 PAM	2	-7	-19	-14	-3	-7	-11	-3
D2 agonist	2.6	-0.2	-0.1	1.8	-7.0	-2.9	-2.8	0.9
Six1-Eya2 inh	7	-3	-8	6	3	4	-9	12

17) O=C(NCc1ccccc1C(F)(F)F)C1CC(c2ccccc2C(F)(F)F)=NO1 (stereo unspecified)
18) CC(=O)Nc1sc2c(c1C(c1cccc(F)c1)N1CCN(CCO)CC1)CCCC2 (stereo unspecified)
19) O=C(CSCc1ccc(Br)cc1)N1CCOCC1
20) CCOC(=O)C1=C(O)C(=O)C(C(=O)OCC)C1 (stereo unspecified)
21) COc1ccc(C(=O)COC(=O)c2ccc3c(c2)OCCO3)c(OC)c1
22) COC(=O)C1CCN(c2ccc([N+](=O)[O-])cc2[N+](=O)[O-])CC1
23) O=C(O)CCc1ccc(-c2cccs2)o1
24) CCN(C(=O)COC(=O)c1[nH]c(C)c(C(C)=O)c1C)C1CCS(=O)(=O)C1 (stereo unspecified)

compound no.	17	18	19	20	21	22	23	24
TRPML1 agonist	0.9	0.6	-0.5	0.0	-0.2	0.5	0.3	0.4
PINK1 expr mod	0.8%	10%	/	0.3%	0.8%	-3.4%	0.5%[38.3 µM]	-1.7%
CtBP-E1A inh	9	-1	8	3	2	/	-1	3
D2 PAM	-11	-9	-4	-8	-1	-13	-2	-16
D2 agonist	-1.6	-2.4	1.0	-1.4	-0.9	1.1	2.8	-1.0
Six1-Eya2 inh	-3	-1	-1	-2	-4	-7	-4	0

# Given with two lines to a compound: entries from further up.
# Every second line gives: TRPML1 agonist | PINK1 expr mod | CtBP-E1A inh | D2 PAM | D2 agonist | Six1-Eya2 inh
22. COC(=O)C1CCN(c2ccc([N+](=O)[O-])cc2[N+](=O)[O-])CC1
    0.5 | -3.4% | / | -13 | 1.1 | -7
23. O=C(O)CCc1ccc(-c2cccs2)o1
    0.3 | 0.5%[38.3 µM] | -1 | -2 | 2.8 | -4

# Next section:
25) CS/C(=N\S(=O)(=O)c1cccs1)Nc1ccc(Br)cc1F
26) COc1ccc(C(=O)N/C(=C\c2cccc([N+](=O)[O-])c2)C(=O)Nc2cccc(C(=O)O)c2)cc1
27) C=CCN(c1ccccc1)S(=O)(=O)c1cccc(C(=O)Nc2ccc(N3CCOCC3)cc2)c1
28) O=c1[nH][nH]c(-c2ccccc2)c1C=Nc1ccccc1
29) CCc1nnc(NC(=O)c2ccc(Cl)c(S(=O)(=O)N3CCc4ccccc4C3)c2)s1
30) NC1=C(Br)C(=O)c2ncccc2C1=O
31) CC(C)N(Cc1ccccc1)C(=O)/C=C/c1ccccc1[N+](=O)[O-]
32) Cc1ccccc1C(=O)NN1CC(C(=O)OCc2ccc(Cl)c(Cl)c2)CC1=O (stereo unspecified)

compound no.	25	26	27	28	29	30	31	32
TRPML1 agonist	0.8&0.6	-0.7	1.7	1.3	-0.1	0.4	2.6	0.1
PINK1 expr mod	1.1%&0.2%	0.1%	0.6%	0.0%	23%	-5.0%	0.8%	0.1%
CtBP-E1A inh	-16&1	/	2	0	8	-3	-7	-1
D2 PAM	-5&-5	-3	-8	7	-4	17	-5	2
D2 agonist	2.7&1.8	3.7	0.1	-2.5	-0.2	?	0.2	7.9
Six1-Eya2 inh	1&10	-1	-29	1	2	?	-11	5

33) Cc1ccc(NC(=O)CSc2nn3c(=O)c(C)nnc3s2)cc1Cl
34) CCN(c1ccc(NC(=O)COC(=O)/C=C/c2cccs2)cc1)C(C)C
35) CCOc1ccc(-n2c(=O)c3sccc3n(Cc3ccc(C)cc3)c2=O)cc1
36) CCOc1ccc(CN(C)c2nc(-c3cccnc3)nc3ccccc23)cc1OC
37) CCNC(=O)c1c(NC(C)=O)sc2c1CCCC2
38) Cc1nc2c(sc(=S)n2Cc2ccco2)c(=O)n1CC(=O)Nc1ccc(F)cc1
39) O=C(C1CCCN(S(=O)(=O)c2cccs2)C1)N1CCC(N2CCCCC2)CC1 (stereo unspecified)
40) COc1cc(CNc2ccc(N3CCN(C(C)=O)CC3)cc2)ccc1OCc1ccccc1

compound no.	33	34	35	36	37	38	39	40
TRPML1 agonist	0.3	-0.5	0.7	-0.1	-0.3	2.6	0.4	1.6
PINK1 expr mod	-0.6%	1.0%	5.3%	5.2%	0.7%	8.1%	0.9%	5.7%
CtBP-E1A inh	-85*	?	/	21	-1	/	-12	?
D2 PAM	-7	-11	11	-6	0	-1	-6	20
D2 agonist	-5.0	-2.9	5.4	-0.1	-1.6	0.9	3.6	0.7
Six1-Eya2 inh	-82*	?	0	-23	0	-1	5	?

41) Cc1cc(S(=O)(=O)N2CCc3ccccc3C2)ccc1F
42) S=C(NCCc1ccccc1)N1CCC2CC1c1c(Cl)cccc12 (stereo unspecified)
43) O=S(=O)(NCC1CCCN(Cc2ccccc2O)C1)c1cccc2cccnc12 (stereo unspecified)
44) O=C1NNC(c2ccccc2)=N/C1=C\c1ccc(Cl)cc1
45) O=c1c2c(-c3ccccc3)csc2nc2n1CCC2
46) COc1cccc(-c2c(C(=O)N/N=C/C3CC=CCC3)nnn2-c2nonc2N)c1 (stereo unspecified)
47) CC1(C)NC(=O)N(CCSc2ccc(Cl)cc2)C1=O
48) CCOc1ccc2oc(C(=O)OCC(=O)NCC3CCCO3)c(C)c2c1 (stereo unspecified)

compound no.	41	42	43	44	45	46	47	48
TRPML1 agonist	2.2	0.1	0.6	2.4	0.7	0.4	0.3	0.8
PINK1 expr mod	2.2%	5.6%	-2.4%	0.2%	-0.3%	-1.9%	/	-0.9%
CtBP-E1A inh	10	7	7	7	0	0	2	0
D2 PAM	-8	1	-36	-5	-16	-5	-1	11
D2 agonist	2.3	-9.7	-3.0	-0.2	-4.6	8.8	-1.4	1.0
Six1-Eya2 inh	-13	-10	-5	-3	19	-1	5	-7

49) CCCNC(=O)C1(C)CCN(CCOc2ccc(Cl)cc2)C1 (stereo unspecified)
50) CSc1nnc(-c2ccco2)n1-c1ccccc1
51) CCOC(=O)n1c(=O)n(Cc2c(Cl)cccc2Cl)c2ccccc21
52) CC1CCCN(C(=O)c2cn(-c3ccccc3)nc2-c2cccnc2)C1 (stereo unspecified)
53) O=C(NCCOc1ccccc1)c1ccccc1[N+](=O)[O-]
54) Cc1ccc(C)c(N(C)S(=O)(=O)c2ccc3c(c2)oc(=O)n3C)c1
55) N=C(N)n1c(N)nc2ccccc2c1=O
56) NC(=O)c1ccsc1NC(=O)CCS(=O)(=O)c1ccccc1

compound no.	49	50	51	52	53	54	55	56
TRPML1 agonist	-1.1	1.2	2.3	-0.9	4.1	0.6	1.8	-1.0
PINK1 expr mod	1.7%	2.2%	18%	0.5%	0.1%	2.8%	-1.3%	1.0%
CtBP-E1A inh	30	-1	-2	1	-11	-16	/	4
D2 PAM	7	-20	11	-1	-8	-14	?	-13
D2 agonist	7.7	-2.9	1.2	2.2	-3.4	-1.1	0.6	-4.5
Six1-Eya2 inh	19	-1	-18	-2	0	-5	?	3

# CtBP-E1A inh, entries above that show a hit
no.	smiles	PINK1 expr mod	CtBP-E1A inh	D2 PAM	D2 agonist	Six1-Eya2 inh
33	Cc1ccc(NC(=O)CSc2nn3c(=O)c(C)nnc3s2)cc1Cl	-0.6%	-85*	-7	-5.0	-82*

# Other compounds
57) Cc1cccc(C)c1NC(=O)CNC(=O)C1CCCN(C(=O)c2ccc(Cl)cc2)C1 (stereo unspecified)
58) CC(C(=O)NCc1ccco1)n1cc([N+](=O)[O-])cn1 (stereo unspecified)
59) CCOC(=O)[C@H]1[C@H]2COc3cc(OC)ccc3[C@@H]2N2C(=O)c3cc(C)ccc3NC(=O)[C@@]12C
60) CCOC(=O)C(=C1Nc2ccccc2N1)n1c(-c2cccnc2)nc2ccccc21
61) Oc1ccc(C=Nc2ccc(N3CCOCC3)cc2)c(O)c1
62) COc1ccccc1N=C(C)C1=C(O)CSC1=O
63) CCOC(=O)c1[nH]c(C)c(/C(O)=C2\C(=O)C(=O)N(CCN(C)C)C2c2ccc(C)o2)c1C (stereo unspecified)
64) O=C(Nc1ccc(Br)cc1Cl)c1ccc(OCC2CCCO2)cc1 (stereo unspecified)
65) COc1ccc(NC(=O)CSc2nc3ccsc3c(=O)n2CCC(=O)O)c(OC)c1

compound no.	57	58	59	60	61	62	63	64	65
TRPML1 agonist	2.1	-0.5	0.9	-0.3	-0.1	0.5	0.1	2.3	-0.7
PINK1 expr mod	0.5%	0.8%	-0.6%	0.3%	0.0%	0.2%	?	1.3%	1.8%
CtBP-E1A inh	-3	-6	-21	-11	0	-3	2	-4	-4
D2 PAM	10	4	-8	/	12	-4	-3	1	-4
D2 agonist	-0.9	-5.4	-2.1	/	-1.6	2.5	-2.5	0.2	-0.9
Six1-Eya2 inh	4	13	0	-25	7	6	0	25	-2
